Screening results deposited in PubChem BioAssay by several laboratories.
CSC inhib: cancer stem cell inhibition; inhibition, % at 7.5 µM; cancer stem cell-like cells viability, luminescence; AID 2717; 1.1% of 300,000 active;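 active = mean at 75% or more and at least half the replicates too; inconclusive = mean and replicates disagree; tested in HMLE shEcad cells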;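 also: 0% = median of negative and 100% = median of positive control wells; the first replicate is given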
Rce1 inh: blocks yeast Ras-converting enzyme; Q03530; yeast membranes, quenched prenylated peptide cleavage fluorescence; calls only; 0.27% of 290,000 active; AID 2563;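 active = fall in fluorescence gain of 50% or more versus controls, with final raw signal at or below 3038400; inconclusive = same 50% fall but final raw signal above 3038400; inactive = fall in fluorescence gain under 50%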;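 also: plate controls were neutral control wells for no effect and wells lacking membranes for full effect; tested at 10 µM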
Target sequence (Q03530 whole entry, looked up): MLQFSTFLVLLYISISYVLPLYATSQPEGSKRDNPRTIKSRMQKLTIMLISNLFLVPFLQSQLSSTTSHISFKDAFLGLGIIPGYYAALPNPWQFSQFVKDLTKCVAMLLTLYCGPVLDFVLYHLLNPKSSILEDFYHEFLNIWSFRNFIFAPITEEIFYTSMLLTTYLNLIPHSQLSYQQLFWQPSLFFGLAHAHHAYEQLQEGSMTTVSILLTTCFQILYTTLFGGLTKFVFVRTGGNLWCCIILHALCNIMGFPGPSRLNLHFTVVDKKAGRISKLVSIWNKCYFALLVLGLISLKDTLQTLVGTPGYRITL
PABP FP inh: blocks human PABP binding to poly(A) RNA | P11940 | fluorescence polarization | inhibition, % at 35 µM | 1% of 290,000 active;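 active = 50% or more with normal probe brightness, or confirmed in later tests; inconclusive = above 50% with abnormal brightness, or retests that disagree; inactive = below 50% or failed in later tests; about a fifth of its hits are not listed in these tables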;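 also: calls also rest on retests at 20 µM and on dose response follow-up; controls were probe without protein and protein plus probe with vehicle; some compounds called inactive have numbers as strong as hits; many hits fall short of the cut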
Target sequence (P11940 whole entry, looked up): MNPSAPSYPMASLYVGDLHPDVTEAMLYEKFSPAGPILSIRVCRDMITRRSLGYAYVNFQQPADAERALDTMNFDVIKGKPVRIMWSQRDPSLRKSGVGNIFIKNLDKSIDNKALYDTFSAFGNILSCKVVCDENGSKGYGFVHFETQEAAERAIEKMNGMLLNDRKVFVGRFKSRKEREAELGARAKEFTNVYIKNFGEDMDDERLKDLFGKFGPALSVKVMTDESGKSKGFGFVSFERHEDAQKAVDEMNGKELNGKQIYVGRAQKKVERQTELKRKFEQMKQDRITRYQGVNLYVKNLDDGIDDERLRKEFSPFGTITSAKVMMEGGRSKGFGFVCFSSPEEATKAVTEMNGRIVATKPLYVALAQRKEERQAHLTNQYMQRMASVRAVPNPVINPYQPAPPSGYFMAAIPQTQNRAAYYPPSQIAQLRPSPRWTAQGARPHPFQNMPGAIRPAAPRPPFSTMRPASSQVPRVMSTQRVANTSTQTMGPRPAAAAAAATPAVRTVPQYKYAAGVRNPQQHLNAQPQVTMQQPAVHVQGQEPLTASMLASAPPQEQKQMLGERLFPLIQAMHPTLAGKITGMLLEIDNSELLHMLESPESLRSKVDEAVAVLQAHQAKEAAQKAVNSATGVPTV
Yeast UUG start: alters start codon recognition fidelity in yeast | S. cerevisiae UUG-firefly luciferase reporter, luminescence/redox ratio | activity score, % at 18.7 µM | 0.13% of 350,000 active;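 active = replicate mean at a twofold rise or more, about +100% in these data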;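 also: firefly luciferase made from a UUG start codon reports start codon fidelity; reporter light over untreated wells divided by growth signal over untreated wells; some hits fall short of that in this replicate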
eIF4H inh: inhibitors of RNA binding by human eIF4H | 0.94% of 290,000 active | eIF4H fluorescence polarization binding assay | AID 2012 | inhibition, % at 35 µM | Q15056;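 active = 50% or more with normal probe brightness, or confirmed in later tests; inconclusive = above 50% with abnormal brightness, or retests that disagree; inactive = below 50% or failed in later tests; about a fifth of its hits are not listed in these tables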;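 also: calls also rest on retests at 20 µM and on dose response follow-up; 0% = protein and probe with vehicle and 100% = probe without protein; strong numbers were not always called active; many hits fall short of the cut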
MT1-MMP act inh: inhibitors of human MT1-MMP activation. GFP/RFP ratio change, % at 20 µM. AID 651647. HT1080 RFP-PRO-GFP cells, GFP/RFP ratio fluorescence, overnight; percent of plate control window, DMSO zero. P50281. 0.061% of 360,000 active;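 active = GFP/RFP ratio change of at least 30% with cell ATP level not reduced by more than half and red fluorescence within 50% of control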; also: strong numbers were not always called active
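system = RFP-PRO-GFP reporter HT1080 cells | dosing = 20 µM single dose, 1% DMSO | timing = overnight cell settling, then overnight compound exposure, 37 °C, 5% CO2 | read-out basis = GFP/RFP fluorescence ratio | controls = DMSO and RFP-L50D-GFP cell wells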
HIV Env fusion: blocks HIV Env-driven cell-cell fusion | inhibition, % at 12.3 µM | HeLa-JRFL Env/CEM21 cell fusion, luciferase | 1.1% of 360,000 active;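 active = mean replicate inhibition score of at least 50 and every replicate individually at or above 50; inconclusive = only one of the two criteria met; inactive = mean below 50 and not all replicates reaching 50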;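 also: 0% = plate neutral controls and 100% = maraviroc near 300 nM; one replicate is shown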
eIF4H inh retest: further read-out of eIF4H inh, marked with its call; inhibition, %; compound at 20 µM; confirmation average;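 mean of two retest wells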
PABP FP inh retest: second read-out of PABP FP inh, no call of its own (marks repeat the call); inhibition, %; compound at 20 µM; confirmation repeats;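 mean of two retest wells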
MT1-MMP act inh RFP: second read-out of MT1-MMP act inh, no call of its own (marks repeat the call); RFP signal change, %; measured here: RFP expression control read;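 0 = vehicle wells; hits needed this value within 50% of zero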
* hit, by the source's call; i = inactive; u = inconclusive; x = no result given; & = joins results of further samples.

SMILES	CSC inhib	Rce1 inh	PABP FP inh	Yeast UUG start	eIF4H inh	MT1-MMP act inh	MT1-MMP act inh RFP	HIV Env fusion	others
O=C(N/N=C/c1cccs1)c1n[nH]c2c1CCC2	59	i	35	x	8	-4	-9	-73
O=C(COC(=O)c1cc(S(=O)(=O)Nc2ccccc2Cl)ccc1O)Nc1nc2ccccc2s1	x	x	-10	x	7	6	3	3
CCOc1ccc(CC(=O)Nc2nccs2)cc1	2	i	4	x	-3	2	0	8
O=C(CSc1ncn[nH]1)Nc1ccccc1Sc1ccccc1	1	i	9	-9	-2	-2	-5	-22
NNc1ccc2nncn2n1	23	i	3	x	-11	0	0	-2
CCN(CC)C(=O)CSc1nc(O)c(Cc2ccc(OC)cc2)c(=O)[nH]1	-20	i	4	-12	-6	1	4	7
O=C(Cn1nc(Cc2cccnc2)c2ccccc2c1=O)Nc1cccnc1Cl	-15	i	12	-8	7	4	3	25
COCCNC(=O)C1(C)CCCN(C(=O)c2ccccc2)C1 (stereo not given)	x	x	x	-6	x	0	2	7
CCS(=O)(=O)c1nc(S(=O)(=O)c2ccc(Cl)cc2)c(NCc2ccccn2)s1	-15	x	-16	x	0	-4	-8	1
CCCc1nc(SCC(=O)NCC2CCCO2)c2c(=O)n(C)c(=O)n(C)c2n1 (stereo not given)	1	i	3	7	1	2	2	7
CCOC(=O)c1ccc(Oc2ccc(C(F)(F)F)cn2)cc1	10	i	10	-23	-5	-2	-1	-4
COc1cccc(NC(=O)N2CCCC2C(=O)NC2CC2)c1 (stereo not given)	-9	i	3	-7	-1	0	2	-11
O=C(O)CC/C(=N\NC(=O)c1ccncc1)c1ccccc1	-2	i	5	-5	6	3	4	9
S=C(NNC(=S)Nc1ccc(Cl)cc1)NNc1ccccc1	x	x	x	-12	x	12	2	-17
CC(=O)c1cccc(CN2CCN(Cc3ccccc3)C(CCO)C2)c1 (stereo not given)	5	i	-4	x	-4	2	2	-5
COc1ccccc1/C=C/C(=O)NCC(=O)N/N=C/c1cccnc1	-2	i	2	x	-4	-1	3	-3
COc1ccc(CN2C(=O)c3cccc4cccc2c34)cc1F	46	i	11	16	11	4	6	-64
CCc1ccc(C2(O)CC(C(F)(F)F)=NN2C(=O)Cc2ccc([N+](=O)[O-])cc2)cc1 (stereo not given)	6	i	-4	-5	-3	3	8	24
CC(NC(N)=O)C(=O)OCC(=O)c1ccc(-c2ccccc2)cc1 (stereo not given)	35	i	27	x	5	-2	2	-13
O=C(O)c1cccc(S(=O)(=O)Nc2ccc(N3CCCCC3)cc2)c1	1	x	x	-5	x	0	2	-23
Cc1nn(-c2ccccc2)c2c1C(=O)N(c1ccccc1)C(=O)C(C)(C)C2	8	i	-16	-4	-2	-2	-1	x
CC(C)C(NC(=O)c1ccc(C(C)(C)C)cc1)C(=O)NCCc1ccccn1 (stereo not given)	-4	i	-9	4	3	-4	3	-14
CC(C)C(=O)Nc1ccc(-c2csc(-c3ccccc3)n2)cc1	8	i	7	-5	2	5	5	x
CC(=O)Nc1ccc(NC(=O)CSc2nnnn2-c2ccc(F)cc2)cc1	4	i	5	-5	7	3	3	11
CNC(=O)Nc1nnc(C(C)(C)C)s1	-5	i	0	-6	-3	2	-1	0

Following part:
SMILES	CSC inhib	Rce1 inh	PABP FP inh	Yeast UUG start	eIF4H inh	MT1-MMP act inh	MT1-MMP act inh RFP	HIV Env fusion	others
CCN(CC)CC(=O)Nc1ccc([N+](=O)[O-])cc1	-9	i	-19	-28	60	-2	-3	0	eIF4H inh retest=-4;PABP FP inh retest=4
CCOC(=O)c1ccc(S(=O)(=O)NCCNCc2ccccc2)cc1	6	x	x	x	x	-3	1	0
C=CCCCCCCCCC(=O)Nc1c[nH]c(=O)[nH]c1=O	3	i	-4	-4	-16	3	-2	x
O=C(NCCNC(=O)Oc1cccc2ccccc12)Oc1cccc2ccccc12	x	x	x	-5	x	0	5	8
CCCC(C)c1nc(C(N)=O)c2[nH]c(=O)n(-c3ccc(OC)c(OC)c3)c2n1 (stereo not given)	-20	i	7	-11	-8	-2	1	7
O=c1cc(O)c2sc(Nc3ccc(F)cc3)nc2[nH]1	10	i	0	x	9	-1	3	9
Cc1cccc(OCc2n[nH]c(=S)n2-c2ccccc2)c1	-13	i	-5	x	-3	1	3	17
COc1ccc2nc(-c3ccccc3)nc(SCC(=O)NCC3CCCO3)c2c1 (stereo not given)	-21	i	0	-10	7	-3	-3	18
CCn1c(COc2cccc(C)c2)nc2ccccc21	-2	i	0	-3	6	2	0	x
CC(Nc1ccc(Cl)cc1)C(=O)NN (stereo not given)	-13	i	3	x	-3	2	2	10
CC(=O)Nc1cncc(-c2ccc(CN(C)C)cc2)n1	x	x	x	-13	x	1	4	16
CC(C)C1=NOC(C(=O)N2CCC(N3CCC(C(=O)N4CCOCC4)CC3)CC2)C1 (stereo not given)	-13	i	-5	x	2	2	4	-18
O=C(Cc1ccccc1)NCCn1ccc2ccccc21	-7	i	0	-11	-6	-7	2	-108
Cc1ccc(/C=N/NC(=O)C(c2ccncc2)N2CCOCC2)cc1 (stereo not given)	-16	i	0	-10	-2	2	2	-2
COc1ccccc1Nc1ccc(Nc2ccccc2OC)nn1	x	i	18	x	3	2	2	-80
CCOC(=O)N1CCN(C(=O)CCN2C(=O)c3ccccc3S2(=O)=O)CC1	-13	i	x	-10	x	7	7	8
O=C(CCCOc1ccccc1)N1CCN(S(=O)(=O)c2cccc(F)c2)CC1	-2	x	x	-1	x	-2	-6	x
Cc1cccc(N2C(=O)c3ccc(C(=O)Nc4cccc(C(=O)O)c4)cc3C2=O)c1	-2	i	10	-44	-7	4	5	-25
CCOC(=O)c1c(-c2ccco2)csc1NC(=O)COC(=O)c1cnccn1	7	i	x	-8	x	1	0	9
CC[N+](CC)(CC)CC(=O)Nc1c(C)cccc1C	-12	i	x	4	x	3	3	14
CC(C)NC(=O)C(=O)NCCN1CCN(C(=O)c2ccc(C(C)(C)C)cc2)CC1	7	i	-1	3	4	2	-1	7
COC(=O)c1ccc(COn2nnc3ccccc32)cc1	-15	i	1	-28	-2	-2	-1	-56
COc1ccc(OC)c(/C=N/N=C2\SCC(=O)N2Cc2ccco2)c1	6	i	7	-6	3	-4	-2	-20
CCC(CO)Nc1nc2ccc(Cl)cc2c2ccccc12 (stereo not given)	53	i	6	-20	-1	3	3	9
COc1ccc(S(=O)(=O)NC(=O)C2(C)CCN2C(=O)Cc2ccccc2Cl)cc1 (stereo not given)	x	x	x	-8	x	-2	5	3

Continuation.
SMILES	CSC inhib	Rce1 inh	PABP FP inh	Yeast UUG start	eIF4H inh	MT1-MMP act inh	MT1-MMP act inh RFP	HIV Env fusion	others
O=C(COc1ccc(F)cc1Br)N1CCN(S(=O)(=O)/C=C/c2ccccc2)CC1	-9	i	2	5	-7	-2	-11	22
NC(=O)c1cc2ccccc2o/c1=N/NC(=O)c1cccs1	-10	i	-8	-4	-5	2	4	4
COc1cc(O)c(C(=O)/C=C/c2ccccc2)c(OC)c1	-11	i	1	-3	-1	5	-14	x
COc1cc(NC(=O)c2ccc(N)nc2)cc(C(=O)Nc2cccc(C(F)(F)F)c2)c1	9	i	-1	-12&0	-16	12&10	3&1	x
Cc1cc(-c2nc(C)c(C(=O)NNS(=O)(=O)c3cccc(C(F)(F)F)c3)s2)no1	-5	i	-5	-11	5	-2	1	2
COc1ccc(CC2(CO)CCN(C/C=C/c3ccccc3OC)CC2)cc1	11	i	-12	x	-1	-2	1	26
COc1ccc(-c2[nH]ncc2CN(C)C(C)c2ccncn2)c(F)c1 (stereo not given)	-7	i	-16	-14	-6	0	-2	14
COc1cccc(-n2c(C)nc3cc(C(=O)O)ccc32)c1	-22	i	10	6	1	7	4	x
COc1ccc(Cl)cc1C(=O)OCC(=O)N1CCCC(C)C1 (stereo not given)	-13	x	x	-23	x	2	4	-17
COCCCNC(=O)Cn1nnc(-c2ccccc2NC(=O)c2ccc(F)cc2)n1	x	i	-4	-3	2	0	1	x
Cc1cccc(-n2ncc3c(NCc4ccco4)ncnc32)c1	53	i	3	-12	-2	2	1	x
O=C(N/N=C/c1ccccc1OCC(=O)N1CCCC1)C(=O)Nc1ccccc1F	0	i	5	-8	-2	-2	0	-11
Fc1ccc(NC(=S)NCCN2CCOCC2)cc1	2	i	-4	x	1	-1	3	2
O=C(/C=C/c1c(Cl)cccc1Cl)NCc1ccccc1	-9	i	-4	10	-6	0	3	x
O=C1C=C(c2ccc3ncccc3c2)C[C@@H](c2ccc3c(c2)OCO3)C1	52	x	x	-9	x	6	-10	9
COc1ccc(-n2c(NC(=O)c3ccco3)c(C#N)c3nc4ccccc4nc32)cc1	0	i	-8	-11	4	-90	-2	-7
COc1cc(C)ccc1OCCON1C(=O)CCC1=O	-1	i	-4	-20	-1	2	2	18
Cc1sc2ncnc(N3CCC(C(=O)Nc4cc(S(C)(=O)=O)ccc4Cl)CC3)c2c1C	-14	i	x	1	x	-11	-16	92*
CCOC(=O)N1CCN(c2ccccc2O)CC1	8	i	5	15	2	12	-2	-19
COc1ccc(OC)c(-c2cc(C(=O)N3CCOCC3)no2)c1	3	i	10	-7	-4	-1	0	-9
COc1ccc(NC(C)=O)cc1NC(=O)CSc1nnc(C2CCCCC2)n1N	-16	i	-1	-7	4	2	6	-9
CN1CCN(c2ccc(NC(=O)c3ccc(Cl)cc3)cn2)CC1	u	i	2	x	58	1	6	7	eIF4H inh retest=-1;PABP FP inh retest=4
O=C(NCCc1ccccc1)c1ccc(NCC2CCCO2)c([N+](=O)[O-])c1 (stereo not given)	-6	i	14	x	-6	3	2	-1
O=C(O)C1CC=CCC1C(=O)Nc1cccc(Cl)c1 (stereo not given)	0	i	-4	3	0	-6	4	x
Cc1ccc(NC(=O)CN(C)C(=O)CSc2nnc(NC(C)C)s2)cc1	x	x	x	-16	x	-1	-3	-2

(continued)
SMILES	CSC inhib	Rce1 inh	PABP FP inh	Yeast UUG start	eIF4H inh	MT1-MMP act inh	MT1-MMP act inh RFP	HIV Env fusion	others
O=C(O)C(Cc1ccc(O)cc1)N1C(=O)c2c(Cl)c(Cl)c(Cl)c(Cl)c2C1=O (stereo not given)	-3	i	x	-14	x	-4	6	5
CCOC(=O)c1sc(NC(=O)OC)c(C(=O)OC)c1C	-6	i	2	-10	-8	2	1	-2
N#Cc1c(NC(=O)CSc2ncn[nH]2)sc2c1CCCCC2	x	i	-6	-44	-2	-3	-12	46
COc1cc(CC(=O)OCC(=O)Nc2cc(S(=O)(=O)N3CCCC3)ccc2Cl)cc(OC)c1OC	14	i	-1	-9	-9	-1	-1	-35
NC(N)=NS(=O)(=O)c1ccc(NC(=S)NC(=O)/C=C/c2ccc(F)cc2)cc1	-11	i	0	-9	-7	0	-3	8
C/C(=N\NC(=O)c1ccc(C)cc1)C1C(=O)c2ccccc2C1=O	21	i	22	-11	7	3	0	-27

4 compounds picked at random from those above, as already listed:
SMILES	CSC inhib	Rce1 inh	PABP FP inh	Yeast UUG start	eIF4H inh	MT1-MMP act inh	MT1-MMP act inh RFP	HIV Env fusion	others
N#Cc1c(NC(=O)CSc2ncn[nH]2)sc2c1CCCCC2	x	i	-6	-44	-2	-3	-12	46
NC(N)=NS(=O)(=O)c1ccc(NC(=S)NC(=O)/C=C/c2ccc(F)cc2)cc1	-11	i	0	-9	-7	0	-3	8
COc1cc(CC(=O)OCC(=O)Nc2cc(S(=O)(=O)N3CCCC3)ccc2Cl)cc(OC)c1OC	14	i	-1	-9	-9	-1	-1	-35
CCOC(=O)c1sc(NC(=O)OC)c(C(=O)OC)c1C	-6	i	2	-10	-8	2	1	-2

Not all compounds are listed; rates above refer to the full screens.
